GLA inh pH 4.5 = qHTS Assay for Inhibitors of Human alpha-Galactosidase at pH 4.5; Alpha-galactosidase A (Homo sapiens), P06280; purified enzyme, 4-MU-alpha-Gal fluorescence, pH 4.5; activity change, negative = inhibition, % at 105 µM; 230,000 tested, under 10 active; AID 1467, 2008; inconclusive = small, poorly fitted or top-dose-only inhibition, or a rising curve; inactive = flat fitted curve, though single readings scatter; no compound was filed as active;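 note: 0% = full activity with enzyme and -100% = basal without enzyme; dose as in the result columns while the protocol names 77 µM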
Target sequence (P06280 whole entry, looked up): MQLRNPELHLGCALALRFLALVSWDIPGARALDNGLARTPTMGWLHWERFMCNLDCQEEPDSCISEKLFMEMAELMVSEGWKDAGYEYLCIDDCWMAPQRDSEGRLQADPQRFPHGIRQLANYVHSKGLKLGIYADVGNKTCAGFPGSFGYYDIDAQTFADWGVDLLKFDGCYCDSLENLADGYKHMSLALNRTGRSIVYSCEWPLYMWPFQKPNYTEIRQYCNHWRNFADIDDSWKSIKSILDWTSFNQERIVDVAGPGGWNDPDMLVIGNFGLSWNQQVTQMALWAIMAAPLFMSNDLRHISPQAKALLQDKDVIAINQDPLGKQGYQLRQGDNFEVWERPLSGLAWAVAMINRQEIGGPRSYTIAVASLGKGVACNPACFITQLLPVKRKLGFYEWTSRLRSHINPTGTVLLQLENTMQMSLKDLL
Rango-impB inh = qHTS Assay for Inhibitors of Rango (Ran-regulated importin-beta cargo) - Importin beta complex formation; Importin subunit beta-1 (Homo sapiens), Q14974; Rango CFP/YFP FRET sensor + importin beta, 45 min; Potency, µM (highest dose often 92.2 µM), for inactives: at the top dose inhibition of complex formation; 0.031% of 340,000 active; AID 540263, 2011; active = rising FRET ratio curve, often small or poorly fitted; inconclusive = mostly compound fluorescence or quenching in the first reads; inactive = flat curves in all reads;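 note: potency is the fitted concentration of half-maximal effect; 0% = DMSO wells and 100% = buffer wells lacking importin beta; nearly all actives have a fitted effect of over 15% in size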
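FRET biosensor Rango (snurportin 1 IBB between N-terminal EYFP and C-terminal Cerulean), 50 nM in PBS/1 mM DTT/0.02% Tween-20/0.1% BSA, preincubated 5 min RT with compound; 0.125 microM importin beta added, 45 min RT, CFP/YFP FRET ratio read.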
miR-21 FLuc = qHTS Assay for Modulators of miRNAs and/orActivators of miR-21 | HeLa miR-21 FLuc reporter, luciferase, 48 h | Potency, µM (doses to about 38.3 µM), without a hit: top-dose reporter change, positive = more light | 340,000 tested, under 10 active | AID 2288, 2010; active = well fitted rising curve with a large enough effect; inconclusive = small, poorly fitted or top-dose-only effect; inactive = no such curve, though single readings can be large or run the other way;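 note: % of control where 0% means no effect; miR-21 action dims this reporter so a rising signal means less miR-21 action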
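Using DMEM plus 10% FBS, HeLa miR-21-FLuc cells are incubated with test compounds (final up to about 40uM) for 48 hours; firefly luciferase signal is then imaged following reagent-mediated lysis.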
Rango release inh = qHTS Assay for Inhibitors of RanGTP induced Rango (Ran-regulated importin-beta cargo) - Importin beta complex dissociation | Snurportin-1 (Homo sapiens) + GTP-binding nuclear protein Ran (Homo sapiens) + Importin … | Biochemical FRET Rango-importin beta, RanGTP-induced dissociation | Potency, µM (series often up to 46.1 µM), inactives show at the top dose activity change, negative = inhibition | 0.071% of 340,000 active | AID 540253, 2011; active means falling FRET ratio curve, often poorly fitted, with flat reads before Ran was added; inconclusive means other falling curves, or compound fluorescence or quenching; inactive means flat or rising ratio curve;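 note: potency is the fitted concentration of half-maximal effect; % of control where 0% means no effect; nearly all actives have a fitted effect of over 45% in size; -100% = wells without RanGTP and RCC1; the record marks most hits as doubtful in a second field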
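Rango/importin beta premix (0.1/0.25 uM final), PBS + 1 mM DTT + 0.02% Tween-20 + 0.1% BSA; cpd 5 min RT; FRET pre-read; + RanGTP-RCC1 (0.6 uM Ran, 2 mM GTP, 0.2 uM RCC1); 45 min RT; FRET post-read, ex 430, em 486/530 nm.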
* = called active by the depositor. Some of the compounds tested; the hit share may differ from the screen's.

Screening O=C1N(CN2CCN(Cc3ccccc3)CC2)c2ccccc2C12OCCCO2 returned GLA inh pH 4.5 5.4, Rango-impB inh -3.0%, miR-21 FLuc -2.7% and Rango release inh -11.8%.
For CCN(CC)S(=O)(=O)c1ccc(N2CCN(C)CC2)c(NC(=O)c2cc(=O)c3ccccc3o2)c1 the results were Rango-impB inh -1.7%, miR-21 FLuc -4.8% and Rango release inh -10.4%.
`O=C(NCc1ccco1)c1cc2ccccc2c(=O)o1` gave GLA inh pH 4.5 -3.6, Rango-impB inh -2.9%, miR-21 FLuc -34.5% and Rango release inh 1.9%.
`COc1cccc2sc(N3CCN(C(=O)c4cccs4)CC3)nc12` gave Rango-impB inh -2.7% and Rango release inh -16.0%.
`O=C(Oc1ccc(-n2cnnn2)cc1)c1ccccc1` gave GLA inh pH 4.5 5.4, Rango-impB inh -2.5%, miR-21 FLuc 0.5% and Rango release inh 9.6%.
For CCCCNC1CCS(=O)(=O)C1 (configuration not stated) the results were GLA inh pH 4.5 -4.1, Rango-impB inh -0.1%, miR-21 FLuc 2.3% and Rango release inh 2.5%.
`COc1cccc(-c2cc(C(=O)NCCc3ccccc3)no2)c1` gave GLA inh pH 4.5 1.0, Rango-impB inh -13.4%, miR-21 FLuc -2.2% and Rango release inh -0.1%.
Screening CNC(=S)Nc1ccccc1-c1ccccc1 returned GLA inh pH 4.5 2.7, Rango-impB inh -3.5%, miR-21 FLuc -1.4% and Rango release inh 1.4%.
For C=CCOC(=O)C1=C(C)OC(N)=C(C#N)C1c1ccccc1F (configuration not stated) the results were GLA inh pH 4.5 -9.6, Rango-impB inh 3.0%, miR-21 FLuc 0.0% and Rango release inh 9.6%.
`COc1ccc(OC)c(NS(=O)(=O)c2ccc(NC(=O)c3ccc(NS(C)(=O)=O)cc3)cc2)c1` gave GLA inh pH 4.5 -20.7, Rango-impB inh -2.6%, miR-21 FLuc 16.5% and Rango release inh -1.2%.
O=C1C2C3CC(C(Br)C3Br)C2C(=O)N1CC1CCCO1 (configuration not stated) was read as GLA inh pH 4.5 -0.4, Rango-impB inh 9.3%, miR-21 FLuc -0.3% and Rango release inh 13.8%.
Screening COc1ccc(/C(CC2OC(=O)c3ccccc32)=N\NC(N)=O)cc1 (configuration not stated) returned GLA inh pH 4.5 5.2, Rango-impB inh 0.3%, miR-21 FLuc -1.3% and Rango release inh -13.7%.
Screening O=C(Cn1nnc(-c2ccccc2Cl)n1)N1CCCCC1 returned Rango-impB inh -0.1%, miR-21 FLuc -52.6% and Rango release inh 3.0%.
For CCOC(=O)c1ccn(-c2nc(-c3ccco3)cc(C(F)(F)F)n2)n1 the results were GLA inh pH 4.5 4.7, Rango-impB inh -2.2%, miR-21 FLuc 1.4% and Rango release inh 11.1%.
`NC(=O)c1ccc(C(=O)N/N=C/c2cccc(Oc3ccccc3)c2)cc1` gave Rango-impB inh 5.9%, miR-21 FLuc -6.7% and Rango release inh -7.5%.
Screening Cc1ccc(N2CN(CCC3=CCCCC3)CNC2=S)cc1 returned GLA inh pH 4.5 -7.5, Rango-impB inh 0.8%, miR-21 FLuc 4.0% and Rango release inh inconclusive.
Screening CNC(=O)c1cc2c(=O)n3cc(C)ccc3nc2n(C(C)C)c1=N returned GLA inh pH 4.5 14.3, Rango-impB inh inconclusive, miR-21 FLuc -6.8% and Rango release inh inconclusive.
`O=C(O)c1cccc(-n2nc(-c3ccc(Cl)c([N+](=O)[O-])c3)c3ccccc3c2=O)c1` gave Rango-impB inh -0.3%, miR-21 FLuc -2.1% and Rango release inh 0.4%.
`CSc1nc2ccc(S(=O)(=O)N3CCc4ccccc43)cc2s1` gave GLA inh pH 4.5 -1.3, Rango-impB inh -1.6%, miR-21 FLuc -4.7% and Rango release inh 9.2%.
Screening O=C(Cc1ccccc1[N+](=O)[O-])N1CCN(S(=O)(=O)c2ccccc2)CC1 returned Rango-impB inh -2.6%, miR-21 FLuc -0.1% and Rango release inh 32.4%.
Screening O=C(c1ccccc1)N1CCC(c2nc(-c3ccc(S(=O)(=O)N4CCOCC4)cc3)no2)CC1 returned GLA inh pH 4.5 2.8, Rango-impB inh -0.3%, miR-21 FLuc 15.8% and Rango release inh -3.9%.
For O=C(c1ccccc1Br)N1CCC(c2nc3ccccc3s2)CC1 the results were GLA inh pH 4.5 -19.1, Rango-impB inh 0.5%, miR-21 FLuc 10.8% and Rango release inh -4.7%.
For CC(C)(CNC(=O)CCC1CCCC1)CNC(=O)CCC1CCCC1 the results were Rango-impB inh -2.7%, miR-21 FLuc -0.5% and Rango release inh -7.1%.
O=C(N/N=C/c1cccnc1)c1ccccc1Cl was read as Rango-impB inh 0.3%, miR-21 FLuc -23.0% and Rango release inh 22.7%.

A stretch from the list above:
Screening O=C1N(CN2CCN(Cc3ccccc3)CC2)c2ccccc2C12OCCCO2 returned GLA inh pH 4.5 5.4, Rango-impB inh -3.0%, miR-21 FLuc -2.7% and Rango release inh -11.8%.
For CCN(CC)S(=O)(=O)c1ccc(N2CCN(C)CC2)c(NC(=O)c2cc(=O)c3ccccc3o2)c1 the results were Rango-impB inh -1.7%, miR-21 FLuc -4.8% and Rango release inh -10.4%.
`O=C(NCc1ccco1)c1cc2ccccc2c(=O)o1` gave GLA inh pH 4.5 -3.6, Rango-impB inh -2.9%, miR-21 FLuc -34.5% and Rango release inh 1.9%.
`COc1cccc2sc(N3CCN(C(=O)c4cccs4)CC3)nc12` gave Rango-impB inh -2.7% and Rango release inh -16.0%.

(more compounds)
Screening O=C(c1cc2nc(-c3cccs3)cc(C(F)(F)F)n2n1)N1CCCc2ccccc21 returned GLA inh pH 4.5 2.7, Rango-impB inh inconclusive, miR-21 FLuc -4.6% and Rango release inh inconclusive.
Screening Cc1ccc(S(=O)(=O)C2CCCCC2=O)cc1 (configuration not stated) returned GLA inh pH 4.5 4.5, Rango-impB inh 6.3%, miR-21 FLuc 1.5% and Rango release inh 27.5%.
O=C(Nc1ccncc1)c1cc2ccccc2o1 was read as GLA inh pH 4.5 2.9, Rango-impB inh 1.5%, miR-21 FLuc -25.2% and Rango release inh 3.7%.
For COc1cccc(COC(=O)CSCC(=O)Nc2cccc(C)c2)c1OC the results were Rango-impB inh -2.8% and Rango release inh -0.6%.
Screening O=C(O)c1ccc(CNC(=O)C2CCCN2C(=O)OCc2ccccc2)cc1 (configuration not stated) returned Rango-impB inh -2.4%, miR-21 FLuc -2.0% and Rango release inh 2.0%.
COc1ccc(C2C(C(C)=O)=C(O)C(=O)N2c2cccnc2)c(OC)c1 (configuration not stated) was read as GLA inh pH 4.5 -6.6, Rango-impB inh 1.3%, miR-21 FLuc -4.7% and Rango release inh -21.3%.
COc1ccc(NC(=O)c2cccc(S(=O)(=O)N(C)c3ccccc3)c2)cn1 was read as GLA inh pH 4.5 7.3, Rango-impB inh 0.4%, miR-21 FLuc 18.8% and Rango release inh -3.9%.
`CN(CC(=O)Nc1ccc(F)c(F)c1F)C(=O)C1CCN(C(=O)Nc2ccccc2)CC1` gave Rango-impB inh -0.2% and Rango release inh 18.3%.
For O=C(NNC(=O)c1oc2ccccc2c1-n1cccc1)c1ccco1 the results were GLA inh pH 4.5 0.1, Rango-impB inh 3.0%, miR-21 FLuc -1.3% and Rango release inh 3.1%.
For CCc1nnc(NC(=O)C2CSC3(C)CCC(=O)N23)s1 (configuration not stated) the results were Rango-impB inh -0.7% and Rango release inh -16.4%.
`Cc1cccc(C(=O)NC2CC3CCC(C2)N3C)c1` (configuration not stated) gave Rango-impB inh 5.9% and Rango release inh -14.3%.
`COc1ccc(N2CCN(C(=O)c3ccc4c(=O)n5c(nc4c3)CCCCC5)CC2)cc1` gave Rango-impB inh 0.6%, miR-21 FLuc 3.3% and Rango release inh 1.0%.
CC(=O)c1ccccc1NC(=O)c1ccc(N2CCCC2=O)cc1 was read as Rango-impB inh -1.3% and Rango release inh -0.9%.
For O=C(NCC1CCN(c2ccc(S(=O)(=O)N3CCOCC3)cc2)CC1)c1ccc(Cl)cc1 the results were GLA inh pH 4.5 -13.2, Rango-impB inh 2.2%, miR-21 FLuc 17.9% and Rango release inh 0.2%.
For C/C(=N\Nc1cc(-c2ccccc2)nc(-c2ccc(Br)cc2)n1)c1cccc(N)c1 the results were Rango-impB inh -1.2% and Rango release inh -5.6%.
Screening COc1cc(OC)cc(C(=O)NNC(=O)NC2CCCCC2)c1 returned GLA inh pH 4.5 6.4, Rango-impB inh 0.0%, miR-21 FLuc 19.2% and Rango release inh 1.6%.
For CN1CCN(c2ccc(S(=O)(=O)N3CCOCC3)cc2NC(=O)CCc2ccccc2)CC1 the results were GLA inh pH 4.5 1.6, Rango-impB inh -4.5%, miR-21 FLuc -8.2% and Rango release inh -12.6%.
`COc1cccc(CNC(=O)C2(C)Oc3ccccc3NC2=O)c1` (configuration not stated) gave GLA inh pH 4.5 1.0, Rango-impB inh 1.2%, miR-21 FLuc -1.2% and Rango release inh 14.5%.
Screening Cc1ccc2nc(C)cc(C(=O)N3CCCC(N4CCN(c5ccccc5C)CC4)C3)c2c1 (configuration not stated) returned Rango-impB inh -0.6%, miR-21 FLuc 15.6% and Rango release inh -0.1%.
`Cn1nnc2cc(C(=O)N3CCCCCC3)ccc21` gave GLA inh pH 4.5 -3.9, Rango-impB inh -0.7%, miR-21 FLuc -13.2% and Rango release inh 0.2%.
Screening CC(=O)Nc1ccc(OCc2nnc(-c3ccc(Cl)cc3)o2)cc1 returned GLA inh pH 4.5 -8.0, Rango-impB inh -1.1%, miR-21 FLuc -33.7% and Rango release inh 7.0%.
CCC(C)NC(=O)c1ccccc1NC(=O)C1COc2ccccc2O1 (configuration not stated) was read as GLA inh pH 4.5 5.1, Rango-impB inh -3.4%, miR-21 FLuc 13.1% and Rango release inh -3.4%.
For Cc1onc(-c2ccccc2Cl)c1C(=O)NC(=S)NCCc1ccccc1 the results were GLA inh pH 4.5 1.4, Rango-impB inh 3.6%, miR-21 FLuc -7.7% and Rango release inh 12.8%.
For CC(C)(C)NC(=O)CCN(/N=C/c1ccncc1)C1=NS(=O)(=O)c2ccccc21 the results were Rango-impB inh -0.2%, miR-21 FLuc -5.1% and Rango release inh 13.9%.
For S=C(NCCN1CCOCC1)N/N=C/c1cccs1 the results were Rango-impB inh -0.6%, miR-21 FLuc -4.1% and Rango release inh -7.8%.
Screening Cc1cc(Br)ccc1SCC(=O)NNC(=O)c1ccco1 returned Rango-impB inh 0.3% and Rango release inh -4.4%.
`Cc1ccc(-n2sc3ccccc3c2=O)cc1S(=O)(=O)N1CCCCC1` gave GLA inh pH 4.5 -3.0, Rango-impB inh -2.4%, miR-21 FLuc -6.9% and Rango release inh 5.2%.
For Cc1ccc(NC(=O)c2nc[nH]c2C(=O)N2CCN(C(=O)OC(C)(C)C)CC2)cc1 the results were Rango-impB inh 1.7% and Rango release inh 25.6%.
Screening CC(C)c1ccccc1NC(=O)COC(=O)Cc1cccc(C(F)(F)F)c1 returned GLA inh pH 4.5 -1.7, Rango-impB inh 1.8%, miR-21 FLuc -4.6% and Rango release inh -1.3%.
`COCCN(C(=O)c1ccc(-c2ccc(Cl)cc2)o1)c1c(N)n(Cc2ccccc2)c(=O)[nH]c1=O` gave Rango-impB inh -4.1% and Rango release inh -8.5%.
O=C(O)CCC(NC(=S)Nc1ccccc1)C(=O)O (configuration not stated) was read as GLA inh pH 4.5 -2.2, Rango-impB inh 4.9%, miR-21 FLuc 0.8% and Rango release inh 13.0%.
CCOC(=O)c1c(NC(=O)CSc2nnnn2C)sc(C)c1C was read as GLA inh pH 4.5 4.2, Rango-impB inh 0.2%, miR-21 FLuc -11.7% and Rango release inh 3.0%.
Screening COc1cc(S(=O)(=O)N2CCCC2)c(C)cc1C returned GLA inh pH 4.5 2.0, Rango-impB inh 11.2%, miR-21 FLuc -1.4% and Rango release inh 1.1%.

From PubChem
